Bioassay records (PubChem BioAssay)
WNV protease inh: inhibitors of WNV NS2B-NS3 protease, primary screen, biochemical, fluorogenic substrate | 65,000 compounds, 0.18% hits | Genome polyprotein (West Nile virus), P06935 | fluorogenic substrate Ex360/Em465; active compounds read low | z-score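 (tested at a level between 10 and 100 µM)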;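 active = z-score at -3 or under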;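 note: score is relative to mean and spread of the compound wells of a plate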
Target sequence (P06935 1371-1501 limits assumed): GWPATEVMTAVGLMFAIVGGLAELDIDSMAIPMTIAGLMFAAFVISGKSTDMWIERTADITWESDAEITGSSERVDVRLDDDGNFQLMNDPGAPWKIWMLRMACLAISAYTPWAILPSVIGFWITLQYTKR
Target sequence (P06935 1502-1679 limits assumed): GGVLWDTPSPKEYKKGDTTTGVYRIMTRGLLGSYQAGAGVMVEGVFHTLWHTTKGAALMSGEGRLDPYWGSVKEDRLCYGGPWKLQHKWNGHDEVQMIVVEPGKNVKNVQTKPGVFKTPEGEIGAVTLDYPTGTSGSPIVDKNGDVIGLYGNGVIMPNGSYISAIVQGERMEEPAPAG
Hsc70: Hsc70 inhibitors, probe displacement, primary screen, biochemical, fluorescence polarization (AID 568). Heat shock cognate 71 kDa protein (Homo sapiens). Hsc70 fluorescence polarization, probe displacement; higher % means a stronger effect; strong numbers were not always called active. one-dose displacement, % at 20 µM; IC50 in µM for titrated hits. 83,000 tested, under 10 active;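 active = displacement above 50% without optical interference and an IC50 on retest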;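 note: ATPase domain with a fluorescein-tagged ATP probe; 0% = vehicle and 100% = excess ADP; read after one hour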
MT1-MMP promoter: inhibitors of MT1-MMP promoter transcription, cell-based, luciferase reporter, luminescence (AID 618); calls from a first round at 10 µM; hits with a dose series show EC50 in µM; MT1-MMP promoter luciferase reporter cells, luminescence; 87,000 compounds, 0.62% hits;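 active = over half of the reporter light lost at 10 µM or EC50 under 50 µM; inactive = the rest and hits that failed the dose series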;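 note: actives suppress MT1-MMP promoter-driven transcription so potencies describe inhibitors; HT1080 fibrosarcoma cells; overnight exposure; toxic or luciferase-blocking compounds were not removed from the actives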
Starred values were filed as active, the others as inactive; i = inactive; x = no result given.

SMILES	WNV protease inh	Hsc70	MT1-MMP promoter
O=C(NCCc1c[nH]c2ccccc12)c1ccc(-n2cnnn2)cc1	-0.5	-7.2%	i
CCC(=O)N1c2ccccc2NC2=C(C(=O)CCC2)C1c1cccnc1 (stereo not given)	-0.05	0.3%	i
c1c(C2CCCCC2)n[nH]c1CN1CCCCC1	2	1.6%	i
O=C(Nc1c(F)cc(F)cc1Br)C1CCCO1 (stereo not given)	-0.56	3.0%	i
O=S(=O)(NCCc1ccccc1)c1ccccc1	x	1.6%	i
Nc1nnc(-c2cn(-c3ccccc3)nc2-c2ccccc2)o1	0.98	-2.0%	i
CSc1nc(NC(C)(C)C)nc(N2CCOCC2)n1	-0.66	-3.4%	i
Oc1ccc2ccccc2c1C1Nc2cccc3cccc(c23)N1	x	3.5%	i
COc1ccc(-c2[nH]nc3c2C(c2ccncc2)C(C#N)=C(N)O3)cc1 (stereo not given)	-1.2	-1.1%	i
CC1=C(C(=O)OCC2CCCO2)C(c2ccc(C)o2)C2=C(CC(c3ccc(F)cc3)CC2=O)N1 (stereo not given)	-0.7	-6.6%	i
Cc1nccn1S(=O)(=O)c1ccc(Br)cc1Br	-0.48	-2.9%	i
COC(=O)c1c(C)nn(-c2ccccc2)c1N	1.3	-3.8%	i
CC(CCc1ccco1)NC(=O)c1cc2c(-c3ccccc3F)nn(C)c2s1 (stereo not given)	-0.7	1.9%	i
O=C1C2C3C=CC([C@@H]2C(=O)N1Cc1cccnc1)C31CC1 (stereo not given in full)	x	-0.3%	i
COc1ccc(O)c(C(=O)c2cnc3onc(C)c3c2)c1	0.25	-1.6%	i
Cc1ccccc1OCC(=O)Nc1ccc2c(c1)COC2=O	-0.67	2.2%	i
CCN(C(=O)CSc1nnnn1-c1cc(C)ccc1OC)C1CCS(=O)(=O)C1 (stereo not given)	-0.53	4.8%	i
COc1cc(C2C3C(=O)N(c4ccccc4)C(=O)C3ON2c2ccccc2)ccc1O (stereo not given)	0.58	0.6%	i
CCCC(=O)NCc1nc2ccccc2n1C	0.88	0.5%	i
Cn1c(=O)c2c(nc(NCc3cccnc3)n2Cc2cccc(C(F)(F)F)c2)n(C)c1=O	0.64	-0.6%	i

In a second layout: entries from further up.
The line under a structure holds: WNV protease inh	Hsc70	MT1-MMP promoter
> Cc1ccccc1OCC(=O)Nc1ccc2c(c1)COC2=O
  -0.67	2.2%	i
> CCN(C(=O)CSc1nnnn1-c1cc(C)ccc1OC)C1CCS(=O)(=O)C1 (stereo not given)
  -0.53	4.8%	i
> COc1cc(C2C3C(=O)N(c4ccccc4)C(=O)C3ON2c2ccccc2)ccc1O (stereo not given)
  0.58	0.6%	i

Other results.
SMILES	WNV protease inh	Hsc70	MT1-MMP promoter
CCOC(=O)c1c(N)sc(C(O)(C(F)(F)F)C(F)(F)F)c1-c1ccccc1	x	6.3%	i
CCCNCC1COc2ccccc2O1 (stereo not given)	x	0.3%	i
COc1ccc(N(CC(=O)Nc2nccs2)S(=O)(=O)c2c(C)nn(C)c2C)cc1	1.2	3.1%	i
Clc1ccc(/C=N/c2c(-c3ccc(Cl)cc3)nc3n2CCS3)cc1	x	9.3%	i
COCCN1C(=O)C(=O)/C(=C(/O)c2cccc(OC)c2)C1c1ccco1 (stereo not given)	-0.83	5.0%	i
Cc1nnc(SCCn2c(Br)nc3c2c(=O)n(C)c(=O)n3C)s1	0.16	-8.3%	i
CCCc1[nH]nc2c1C(c1ccncc1)C(C#N)=C(N)O2 (stereo not given)	-1.2	3.2%	i
CN(C)c1ccc(C(=O)C(O)c2ccccc2)cc1 (stereo not given)	x	7.2%	i
CCOc1nc(NCc2ccco2)nc(Nc2ccc(OC)cc2)n1	-0.24	5.1%	i
Cc1cc(NC(=O)c2c(-c3ccccc3Cl)noc2C)no1	-0.33	2.8%	i
CC(C)(C)C1CCC(=NNS(=O)(=O)c2ccc(Br)cc2)CC1 (stereo not given)	x	2.6%	i
O=C(COC(=O)CCCNC(=O)c1ccc(Cl)cc1)NC1CC1	0.37	-3.0%	i
O=C1CC(c2c[nH]c3ccccc23)C(=O)N1c1ccccc1 (stereo not given)	x	0.5%	i
COc1ccccc1C(=O)Nn1cnc2ccccc2c1=O	1.2	-0.9%	i
C=CCn1c(SCC(=O)NCc2ccco2)nc2sc(C)c(C)c2c1=O	x	2.3%	i
O=C(CSc1nnc(-c2cccc(S(=O)(=O)N3CCCCC3)c2)o1)NCCC1=CCCCC1	1.1	-6.8%	i
COC(=O)c1sc(NC(C)=O)c(C(=O)OC)c1C	-1.1	6.9%	i
COc1ccc(OC)c2c1sc(=NC(=O)C(C)(C)C)n2C	-0.63	0.7%	i
O=C(CN1CCN(c2ccccc2)CC1)Nc1ccc(-n2cnnn2)cc1	0.53	1.9%	i
O=C(CN1CCCCC1)Nc1cccc(Cl)c1Cl	-0.64	12%	i
CCc1ccc(N(CC(=O)NC2CCCCC2)S(=O)(=O)c2c(C)noc2C)cc1	-0.89	3.5%	i
COc1ccc(OC)c(NC(=O)CSc2nnc(CNC(=O)COc3ccc(Cl)cc3)o2)c1	-0.32	1.2%	i
CSc1nnc2c(n1)OC(C)=Nc1ccccc1-2	-0.9	3.0%	i
COC(=O)c1ccc(NC(=O)CNC(=O)C2CCCCC2)cc1	-0.77	-1.6%	i
O=C1NC(c2ccccc2)(C(F)(F)F)C(=O)N1Cc1cccnc1 (stereo not given)	-0.19	-5.6%	i
CC1CCc2nc(N)c(C#N)c(-c3cccnc3)c2C1 (stereo not given)	-0.19	-9.8%	i
CN(Cc1ccccc1)Cc1c(F)cccc1F	-0.39	1.7%	i
CS(=O)(=O)N(CC(=O)N1CCOCC1)c1ccc2c3c(cccc13)CC2	0.14	8.0%	i
O=C(NCCCN1CCOCC1)c1ccc(Cl)s1	x	-4.2%	i
CCN=c1scc(-c2ccc3c(c2)NC(=O)CO3)n1N=C1CCCC1	-1	-63%	i

Complete entries, quoted from the list:
`O=C(NCCCN1CCOCC1)c1ccc(Cl)s1` in the list: WNV protease inh = x; Hsc70 = -4.2%; MT1-MMP promoter = i
`CN(Cc1ccccc1)Cc1c(F)cccc1F` in the list: WNV protease inh = -0.39; Hsc70 = 1.7%; MT1-MMP promoter = i

(further entries)
SMILES	WNV protease inh	Hsc70	MT1-MMP promoter
CCCNS(=O)(=O)c1ccc(OCC(=O)NCc2ccco2)cc1	0.38	-3.8%	i
Cc1ccc(S(=O)(=O)/N=C(/Nc2nc(C)cc(C)n2)N2CCOCC2)cc1	0.21	-1.1%	i
COc1ccc(-c2ccc(-c3noc(C(C)C)n3)c(OC)n2)cc1	-0.96	5.5%	i
O=C(NCCCCNC(=O)c1cccnc1)c1cccnc1	0.58	-3.6%	i
O=C(CSc1nc(-c2ccccc2)cc(=O)[nH]1)NCc1ccc2c(c1)OCO2	0.52	-5.5%	i
COc1ccc(N2CC(C(=O)NCCc3ccc(OC)c(OC)c3)CC2=O)cc1 (stereo not given)	-0.25	2.6%	i
Cc1ccc(OCc2nnc(SCC(=O)NC3CCCCC3)n2C)cc1	-0.7	4.7%	i
C=CCSc1nc2c(c(=O)[nH]1)C(C(C)C)C(C#N)=C(N)O2 (stereo not given)	-0.03	3.8%	i
CCCc1nc(NCc2ccco2)c(C#N)c2c1COC(C)(C)C2	-0.46	5.7%	i
Cc1cccc(NC(=O)CSc2nc3c(c(=O)[nH]2)CCCC3)c1C	x	3.4%	i
O=C(C1=C(O)C(=O)N(CCc2ccccc2)C1c1cccnc1)c1ccco1 (stereo not given)	-0.3	-3.5%	i
CCCN1C=CC(=C/C=C(\C#N)C(=O)OCC)C=C1	x	-185%	i
C=C(C)Cn1c(NCCC)nc2c1c(=O)n(C)c(=O)n2C	-0.14	-3.2%	i
COc1ccc(C(CC(=O)O)NC(=O)Cc2ccccc2)cc1 (stereo not given)	-0.35	5.9%	i
CC1Cn2c(nc3sc4c(c3c2=O)CCC4)N1CCO (stereo not given)	0.2	-0.6%	i
O=S(=O)(c1cccs1)N1CCc2ccccc2C1	0.04	-14%	i
CCn1c(SCc2ccc(C(=O)OC)o2)nc2sc3c(c2c1=O)CCCC3	-1.3	2.0%	i
CC(C)C(=O)N1CCN(c2ccccc2NC(=O)c2cccc(Cl)c2)CC1	x	0.8%	i
COc1ccccc1NC(=O)CSC1CC(=O)N(c2ccc3c(c2)OCO3)C1=O (stereo not given)	0.76	-1.8%	i
CCC(C)(C)n1nnnc1C(C(C)C)N1CCN(C)CC1 (stereo not given)	-0.2	1.0%	i
Cc1ccc(S(=O)(=O)c2ccc(Cl)cc2)cc1S(=O)(=O)N1CCN(C)CC1	x	5.4%	i
CC(C)(C)C1CCc2onc(C(=O)NCc3ccc(F)cc3)c2C1 (stereo not given)	-0.27	-2.3%	i
O=C(Nc1ccc2c(c1)OCO2)NC1CCN(Cc2ccccc2)CC1	-0.32	1.4%	i
Brc1ccc(-c2nnc(-c3ccco3)o2)cc1	-0.68	-0.3%	i
CCOC(=O)C1=C(C)NC(SCC(N)=O)=C(C#N)C1c1cccs1 (stereo not given)	x	1.7%	i
Cc1cc(C)nc(N2C(=O)CC(C(=O)O)NC2=NCCc2c[nH]c3ccccc23)n1 (stereo not given)	-0.7	-6.3%	i
COc1nc(Oc2ccc(=O)n(C)n2)nc(N(C)C)n1	-0.47	-11%	i
Fc1ccc(Nc2nc(N3CCOCC3)c3ccccc3n2)cc1	-0.3	6.9%	i
COc1ccc(-c2cc(-c3cccs3)c(C#N)c(SCC(=O)NCc3ccccc3)n2)cc1	x	2.6%	i
COc1nc(NCc2cccnc2)nc(OC)n1	1.2	1.0%	i
Cn1c(SCC(=O)C(C)(C)C)nnc1-c1ccncc1	x	-4.8%	i
CCOC(=O)C1CCCN(C(=O)Cn2nc(CC)n3c(cc4sccc43)c2=O)C1 (stereo not given)	-1.6	-2.2%	i
O=C(CSc1nnc(COc2ccccc2)n1Cc1ccco1)Nc1ccc2c(c1)OCCO2	0.44	-0.1%	i
O=C(CCC(=O)NC1CCN(Cc2ccccc2)CC1)NCc1ccco1	-0.22	-0.2%	i
CC(=O)c1cccc(S(=O)(=O)N2CCCC(c3nc(-c4ccc(C)o4)no3)C2)c1 (stereo not given)	-1.7	-2.0%	i
Cc1ccc2[nH]c3c(=O)n(CCc4cnc[nH]4)cnc3c2c1	x	5.5%	i
CCN(CC)c1nc(N2CCOCC2)c(C#N)c2c1CN(C)CC2	-0.39	1.2%	i
O=C(Nc1ccc(NC(=O)c2cccs2)cc1)c1ccc(Br)o1	x	12%	i
O=C(Nc1nc(-c2cccs2)cs1)c1cccc(S(=O)(=O)N2CCCCC2)c1	0.11	-6.6%	i
Cc1ccc(-c2n[nH]c(=O)c3ccccc23)cc1S(=O)(=O)NCCO	x	2.3%	i

Shown with two lines to a compound: three of the compounds above.
Below each compound: WNV protease inh	Hsc70	MT1-MMP promoter
CCCN1C=CC(=C/C=C(\C#N)C(=O)OCC)C=C1
 : x	-185%	i
C=C(C)Cn1c(NCCC)nc2c1c(=O)n(C)c(=O)n2C
 : -0.14	-3.2%	i
Cc1nccn1S(=O)(=O)c1ccc(Br)cc1Br
 : -0.48	-2.9%	i

Of the compounds above, these have a COOH group:
SMILES	WNV protease inh	Hsc70	MT1-MMP promoter
COc1ccc(C(CC(=O)O)NC(=O)Cc2ccccc2)cc1 (stereo not given)	-0.35	5.9%	i
Cc1cc(C)nc(N2C(=O)CC(C(=O)O)NC2=NCCc2c[nH]c3ccccc23)n1 (stereo not given)	-0.7	-6.3%	i

Later entries:
SMILES	WNV protease inh	Hsc70	MT1-MMP promoter
O=C(Cc1cccs1)Nc1nnc(-c2ccncc2)s1	-1.1	-5.2%	i
CC1CCc2cccc3c2N1c1cc(C#N)c(C#N)cc1O3 (stereo not given)	-1.4	25%	i
Cc1[nH]c2ccc(S(N)(=O)=O)cc2c1C	0.11	1.2%	i
CCC(c1nnnn1CC1CCCO1)N(CCN1CCOCC1)Cc1cc2cc(C)ccc2[nH]c1=O (stereo not given)	-1.1	2.5%	i
N#Cc1cc2c(nc1SCC(=O)NCc1ccc3c(c1)OCO3)CCCCC2	0.56	-9.5%	i
Cc1ccc(O)c(NC(=O)CCC2CCCCC2)c1	-1.2	-6.0%	i
O=C(c1ccco1)N1CCN(c2nc3ccccc3c(=O)n2-c2ccccc2)CC1	0.68	4.3%	i
O=C(OCCN1C(=O)c2ccccc2C1=O)c1ccc(S(=O)(=O)N2CCCCCC2)cc1	0.2	3.2%	i
CCN(CC)C1CCCCC1NS(=O)(=O)c1ccc(Cl)cc1 (stereo not given)	1.8	6.9%	i
Cc1cccc(Cn2c(SCC(=O)Nc3ccccc3)nc3c2c(=O)[nH]c(=O)n3C)c1	0.5	0.7%	i
Cc1cc(OCC(=O)C(C)(C)C)c2c(C)c(C)c(=O)oc2c1	-0.83	-3.1%	i
CCOc1ccc(-c2[nH]ncc2Oc2ccccc2OC)c(O)c1	0.94	-2.6%	i
Cc1cc(C)n(-c2nc(N(C)C)nc(N3CCOCC3)n2)n1	x	2.2%	i
O=C(c1ccc(Br)o1)N(c1ccc(Br)cc1)C1C=CS(=O)(=O)C1 (stereo not given)	-0.17	-8.1%	i
CC(=O)N1CCN(C(=O)Nc2cccc(C(F)(F)F)c2)CC1	-0.63	-2.0%	i
Cn1c(N2CCN(c3ccccn3)CC2)nc2c1c(=O)n(Cc1ccc(Cl)cc1)c(=O)n2C	-0.87	0.1%	i
Cn1c(SCC(=O)NC2CC2)nnc1C(F)(F)F	0.77	-0.2%	i
Cc1nc2sccn2c1-c1nc(-c2cc3ccccc3o2)cs1	-0.81	-7.1%	i
